# Hedgehog inh: Hedgehog pathway signaling inhibitors, primary screen, luminescence, Shh-LIGHT2 cells, Gli-luciferase. Shh-LIGHT2 Gli-luciferase reporter, 30 h. inhibition, % (test concentration not listed). actives 2.1% (n = 22,000). AID 2313, 2010;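 active = replicate mean of 65% or more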;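 note: pathway switched on by Shh-conditioned medium diluted 1 in 25 in low serum; 100 nL library stock added to about 40 µL; 0% = median of neutral wells and 100% = positive control level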
# PD-1 reversal: activators reversing PD-1 mediated T-cell inhibition, primary screen, luminescence, primary human CD4 T cells, PD-L1 beads. CellTiter-Glo 96 h. activation, % (concentration not given with the values). 29,000 tested, under 10 active. AID 2316, 2010;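 active = replicate mean of 50% or more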;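 note: 0% = median vehicle wells and 100% = positive control; 100 nL library stock added to about 50 µL; numbers are from one replicate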
# YB-1 expr inh: inhibitors of YB-1 gene expression, primary screen, cell-based, fluorescence; U2OS, qRT-PCR YB-1 vs CDIP delta delta Cp, 16 h; active compounds read high; zero = DMSO, each unit about twofold; delta delta Cp (YB-1 minus CDIP) (test concentration not listed); actives 0.37% (n = 30,000); AID 434959, 2010;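 active = delta delta Cp rounded down to an integer at or above 3, about 3 SD of DMSO wells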;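 note: higher means less YB-1 transcript or more CDIP transcript relative to DMSO; stock transfer was 100 nL into about 100 µL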
# MITF inh: inhibitors of MITF, primary screen, MITF inhibitor project, cell-based, luminescence | TRPM1 promoter luciferase, 24 h | inhibition, % (no concentration beside the values) | actives 0.28% (n = 37,000);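 active = most replicates at 85% or more, or half of them and the mean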;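 note: human melanocyte line stably carrying TRPM1 promoter luciferase reporter; 0% = vehicle wells and 100% = a positive control; the first replicate is given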
# * hit, by the source's call; . = not tested or not shown. Only part of the results is shown (hit frequency here may not be typical).
SMILES,Hedgehog inh,PD-1 reversal,YB-1 expr inh,MITF inh
C[C@H](CO)N1C[C@H](C)[C@@H](CN(C)Cc2ccc(Cl)c(Cl)c2)Oc2ccc(NC(=O)Cc3cn(C)c4ccccc34)cc2C1=O,.,-1.8,0.098,22
COC(=O)c1cc(O)cc(OC)c1Oc1cc(C)cc(O)c1C(=O)O,3,.,0.075,.
C[C@@H]1CN([C@H](C)CO)C(=O)Cc2cc(NC(=O)NC3CCCCC3)ccc2O[C@@H]1CN(C)S(=O)(=O)c1cn(C)cn1,8,1.2,0.16,-14
C[C@@H]1CN([C@@H](C)CO)C(=O)c2cccc(NC(=O)c3ccc(-c4nccs4)cc3)c2O[C@H]1CN(C)S(=O)(=O)c1cccs1,12,-0.9,-0.43,1
C[C@@H]1CN([C@H](C)CO)C(=O)c2cc(NC(=O)NC3CCCCC3)ccc2O[C@@H]1CN(C)Cc1ccccc1,.,0.7,-0.13,1
O=C1CC(C(=O)Nc2cccc(C(=O)O)c2)C(c2ccccc2)O1 (centres undefined),.,1.6,.,-42
C[C@H](CO)N1C[C@H](C)[C@H](CN(C)C(=O)NC2CCCCC2)Oc2ccc(NC(=O)Nc3ccc(F)cc3)cc2C1=O,.,6.1,-0.11,-17
C[C@H]1CN([C@@H](C)CO)C(=O)Cc2cc(NC(=O)Nc3ccc(F)cc3)ccc2O[C@H]1CN(C)Cc1ccc(Oc2ccccc2)cc1,-27,-1.4,0.038,6
C[C@@H]1CN([C@@H](C)CO)C(=O)c2cccc(NC(=O)c3cnccn3)c2O[C@H]1CN(C)S(=O)(=O)c1ccccc1,13,2.3,-0.38,-13
CC(=O)c1ccc(-n2c(CCC(=O)O)ccc2-c2ccc(F)cc2)cc1,.,-1.0,.,-10
COc1ccc(NC(=O)N(C)C[C@@H]2Oc3c(NS(=O)(=O)c4ccc(OC)cc4)cccc3C(=O)N([C@@H](C)CO)C[C@@H]2C)cc1,22,-1.5,0.39,-2
COc1cc2c(cc1NC(=S)NCCc1ccc(OC)c(OC)c1)oc1ccccc12,.,-5.0,.,46
O=C(c1ccc(Br)cc1)C(C(=O)N1CCCCC1)n1ccccc1=O (centres undefined),.,1.4,-0.39,-4
CC(O)CC(=O)c1cc(O)ccc1O (centres undefined),-8,1.7,4.6*,3
COc1cc(NC(=O)COc2ccc(C(C)(C)C)cc2Br)c(OC)cc1Cl,.,-1.7,.,-52
C[C@H](CO)N1C[C@H](C)[C@@H](CN(C)Cc2ccccc2)Oc2ccc(NC(=O)CCN3CCOCC3)cc2C1=O,-12,1.3,-0.096,3
Cc1noc(C)c1NC(=O)Nc1ccc2c(c1)C(=O)N([C@H](C)CO)C[C@H](C)[C@H](CN(C)C(=O)NC(C)C)O2,-10,0.4,0.41,6
CS(=O)(=O)N(CC(=O)Nc1cc(Cl)ccc1Cl)c1cccc([N+](=O)[O-])c1,.,-0.3,.,23
O=C(CC1C(=O)NCCN1C(=O)c1ccc(F)cc1)OCc1ccccc1 (centres undefined),.,1.6,.,-31
Cc1noc(C)c1NC(=O)N(C)C[C@@H]1Oc2ccc(NS(=O)(=O)c3cn(C)cn3)cc2C(=O)N([C@@H](C)CO)C[C@@H]1C,.,4.9,-0.61,-8
COc1ccc(N(C(C)C(=O)Nc2ccc(I)cc2)S(C)(=O)=O)cc1 (centres undefined),.,-0.7,.,-4
C[C@@H]1CN([C@@H](C)CO)C(=O)c2cc(NC(=O)CCN3CCOCC3)ccc2O[C@H]1CN(C)Cc1ccc2c(c1)OCO2,-34,-0.2,0.18,-5
C[C@H]1CN([C@@H](C)CO)C(=O)c2cc(NC(=O)C3CC3)ccc2O[C@@H]1CN(C)C,.,4.1,0.91,11
C[C@H](CO)N1C[C@H](C)[C@H](CN(C)C(=O)Nc2ccc3c(c2)OCO3)Oc2ccc(NC(=O)Cn3cnnn3)cc2C1=O,1,1.2,-0.17,-6
C[C@@H]1CN([C@@H](C)CO)C(=O)c2cc(NC(=O)Cn3cnnn3)ccc2O[C@H]1CN(C)CC1CCCCC1,-47,.,0.18,5
CS(=O)(=O)N(CC(=O)Nc1ccc2c(c1)OCCO2)Cc1ccccc1,.,1.5,.,2
C[C@@H]1CN([C@@H](C)CO)C(=O)c2cccc(NC(=O)C3CCCCC3)c2O[C@H]1CN(C)Cc1ccncc1,34,.,0.15,4
CCOC(=O)CNc1n[nH]c(=O)[nH]c1=O,11,1.0,-0.55,-1
COc1ccc(NC(=O)Nc2ccc3c(c2)CC(=O)N([C@@H](C)CO)C[C@H](C)[C@@H](CN(C)C(=O)Nc2ccc(F)cc2)O3)cc1,.,.,0.023,-15
Cc1ccc(S(=O)(=O)N(C)C[C@@H]2Oc3c(NC(=O)c4ccncc4)cccc3C(=O)N([C@@H](C)CO)C[C@@H]2C)cc1,25,.,-0.77,-18
C[C@@H]1CN([C@H](C)CO)C(=O)c2cc(NS(=O)(=O)c3ccc(Cl)cc3)ccc2O[C@@H]1CN(C)Cc1ccc(Cl)c(Cl)c1,42,.,0.41,50
C[C@H](CO)N1C[C@H](C)[C@H](CN(C)Cc2ccc(C(F)(F)F)cc2)Oc2ccc(NC(=O)Cc3ccccc3)cc2CC1=O,-14,0.3,-0.13,34
CNCCC=C1c2ccccc2CCc2ccccc21,15,.,-0.21,16
COc1ccc(S(=O)(=O)N(C)CC(=O)Nc2cc(Cl)c(Cl)cc2Cl)cc1Cl,.,0.7,.,5
N#CC(C#N)=C(Nc1ccc(Br)cc1)SCc1ccc(F)cc1,109*,-9.9,0.32,73
C[C@H](CO)N1C[C@H](C)[C@H](CN(C)Cc2ccc(C(=O)Nc3ccccc3N)cc2)Oc2c(NS(C)(=O)=O)cccc2C1=O,.,1.0,-0.4,3
Cc1noc(C)c1NC(=O)N(C)C[C@H]1Oc2c(NC(=O)c3ccncc3)cccc2C(=O)N([C@H](C)CO)C[C@H]1C,-19,1.2,-0.078,3
COc1ccc(S(=O)(=O)Nc2ccc3c(c2)C(=O)N([C@@H](C)CO)C[C@@H](C)[C@H](CN(C)Cc2ccc(C(=O)O)cc2)O3)cc1,.,2.8,0.065,-2
COc1cc(CCC(O)CC(O)CCc2ccc(O)c(OC)c2)ccc1O (centres undefined),-52,.,-0.51,.
O=C(Nc1ccccc1)Nc1ccc(Cl)cc1SCc1ccccc1,18,-7.4,-0.27,13

# Already shown: an excerpt of the list.
SMILES,Hedgehog inh,PD-1 reversal,YB-1 expr inh,MITF inh
N#CC(C#N)=C(Nc1ccc(Br)cc1)SCc1ccc(F)cc1,109*,-9.9,0.32,73
C[C@H](CO)N1C[C@H](C)[C@H](CN(C)Cc2ccc(C(=O)Nc3ccccc3N)cc2)Oc2c(NS(C)(=O)=O)cccc2C1=O,.,1.0,-0.4,3
Cc1noc(C)c1NC(=O)N(C)C[C@H]1Oc2c(NC(=O)c3ccncc3)cccc2C(=O)N([C@H](C)CO)C[C@H]1C,-19,1.2,-0.078,3
COc1ccc(S(=O)(=O)Nc2ccc3c(c2)C(=O)N([C@@H](C)CO)C[C@@H](C)[C@H](CN(C)Cc2ccc(C(=O)O)cc2)O3)cc1,.,2.8,0.065,-2
COc1cc(CCC(O)CC(O)CCc2ccc(O)c(OC)c2)ccc1O (centres undefined),-52,.,-0.51,.
O=C(Nc1ccccc1)Nc1ccc(Cl)cc1SCc1ccccc1,18,-7.4,-0.27,13

# (more compounds)
SMILES,Hedgehog inh,PD-1 reversal,YB-1 expr inh,MITF inh
C[C@@H]1CCCCO[C@H](CN(C)S(=O)(=O)c2ccc(F)cc2)[C@@H](C)CN([C@H](C)CO)C(=O)c2cc(NS(=O)(=O)c3ccc(Cl)cc3)ccc2O1,13,.,-0.17,18
Cc1ccc(S(=O)(=O)N(C)C[C@@H]2Oc3ccc(NS(=O)(=O)c4cn(C)cn4)cc3C(=O)N([C@H](C)CO)C[C@H]2C)cc1,.,-2.7,-0.88,-3
CC1(C)NC(=O)N(c2ccc([N+](=O)[O-])c(C(F)(F)F)c2)C1=O,-27,5.2,-0.18,6
C[C@@H]1CN([C@@H](C)CO)C(=O)c2cccc(NC(=O)Nc3ccc(F)cc3)c2O[C@@H]1CN(C)Cc1ccc(C(=O)O)cc1,-27,3.2,0.021,1
NC(CC(=O)Nc1ccc(Cl)cc1)C(=O)O (centres undefined),.,1.2,.,-7
COCCNS(=O)(=O)c1cc(OC)c(Cl)cc1OC,.,0.6,.,-4
COc1ccc(CN(C)C[C@H]2OCCCC[C@@H](C)Oc3ccc(NC(=O)Nc4cccc5ccccc45)cc3C(=O)N([C@H](C)CO)C[C@@H]2C)cc1,18,.,-0.0061,-8
C[C@H]1CN([C@@H](C)CO)C(=O)Cc2cc(NC(=O)C3CCCCC3)ccc2O[C@H]1CN(C)C(=O)Nc1cccc2ccccc12,.,0.0,-0.064,-10
O=C(NCc1ccccn1)C1CCCN(S(=O)(=O)c2ccc(F)cc2)C1 (centres undefined),.,2.1,.,0
C[C@@H]1CN([C@@H](C)CO)C(=O)Cc2cc(NC(=O)CCN3CCOCC3)ccc2O[C@@H]1CN(C)C(=O)Nc1cccc2ccccc12,43,.,0.35,2

# Three entries drawn at random from the list so far, as already listed:
SMILES,Hedgehog inh,PD-1 reversal,YB-1 expr inh,MITF inh
C[C@@H]1CN([C@@H](C)CO)C(=O)c2cccc(NC(=O)c3ccc(-c4nccs4)cc3)c2O[C@H]1CN(C)S(=O)(=O)c1cccs1,12,-0.9,-0.43,1
COc1cc(NC(=O)COc2ccc(C(C)(C)C)cc2Br)c(OC)cc1Cl,.,-1.7,.,-52
Cc1noc(C)c1NC(=O)Nc1ccc2c(c1)C(=O)N([C@H](C)CO)C[C@H](C)[C@H](CN(C)C(=O)NC(C)C)O2,-10,0.4,0.41,6

# (cont.)
SMILES,Hedgehog inh,PD-1 reversal,YB-1 expr inh,MITF inh
C[C@@H]1CN([C@@H](C)CO)C(=O)c2cc(NS(=O)(=O)c3ccc(F)cc3)ccc2O[C@H]1CN(C)Cc1ccc(C(F)(F)F)cc1,21,-2.2,0.34,5
C[C@@H]1CCCCO[C@H](CN(C)S(=O)(=O)c2cccs2)[C@@H](C)CN([C@H](C)CO)C(=O)c2cc(NC(=O)Nc3ccc4c(c3)OCO4)ccc2O1,1,.,0.22,-14
COc1ccccc1NC(=O)Cn1cnc2scc(-c3cccc([N+](=O)[O-])c3)c2c1=O,.,-4.7,.,23
O=C(c1nc2ncccn2n1)N(Cc1ccccc1)Cc1ccccc1,24,-1.3,-0.0036,3
CNC[C@H]1Oc2c(NS(=O)(=O)c3ccc(OC)cc3)cccc2C(=O)N([C@H](C)CO)C[C@@H]1C,22,.,-0.12,-14
CC(NS(=O)(=O)c1ccccc1)C(=O)Nc1ccc(F)c(Cl)c1 (centres undefined),.,0.1,.,-1
Cc1noc(C)c1S(=O)(=O)N(C)C[C@@H]1Oc2ccc(NS(=O)(=O)c3cccs3)cc2CC(=O)N([C@@H](C)CO)C[C@@H]1C,.,0.7,-0.029,-11
C[C@@H]1CN([C@H](C)CO)C(=O)c2cccc(NC(=O)C3CCCCC3)c2O[C@@H]1CN(C)C(=O)Nc1ccc2c(c1)OCO2,11,1.7,-0.79,-4
O=[N+]([O-])c1cccc(CN2CCN(Cc3ccco3)CC2)c1,.,0.8,.,-33
COc1ccccc1OCCSc1n[nH]c2nc3ccccc3n12,.,-0.3,.,-14
C[C@@H]1CN([C@@H](C)CO)C(=O)c2cc(NC(=O)Cc3cn(C)c4ccccc34)ccc2O[C@H]1CN(C)S(=O)(=O)c1ccc(F)cc1,.,-3.5,-0.04,4
Cc1ccccc1NC(=O)CSC1CC(=O)N(c2ccccc2)C1=O (centres undefined),.,0.2,.,-4
c1cncc(-c2nn3c(Cn4cnc5ccccc54)nnc3s2)c1,.,-2.9,.,5
COc1ccc(S(=O)(=O)Nc2ccc3c(c2)C(=O)N([C@H](C)CO)C[C@H](C)[C@@H](CN(C)C(=O)Nc2ccc4c(c2)OCO4)O3)cc1,.,1.4,-0.62,1
COc1ccc(NC(=O)N(C)C[C@H]2Oc3ccc(NC(=O)Cc4ccccc4)cc3CC(=O)N([C@@H](C)CO)C[C@H]2C)cc1,-14,0.6,-0.3,-7
Cc1noc(C)c1NC(=O)N(C)C[C@H]1OCCCC[C@@H](C)Oc2ccc(NS(=O)(=O)c3c(C)noc3C)cc2C(=O)N([C@H](C)CO)C[C@@H]1C,39,1.6,-0.19,-6
C[C@H](CO)N1C[C@H](C)[C@H](CN(C)Cc2ccc(C(F)(F)F)cc2)Oc2c(NC(=O)Nc3ccc(F)cc3)cccc2C1=O,-86,-1.6,0.14,29
CCOC(=O)c1cnc2ccc(OCC)cc2c1N1CCN(c2ccccc2)CC1,19,-0.5,0.49,2
Cc1noc(C)c1S(=O)(=O)Nc1ccc2c(c1)C(=O)N([C@H](C)CO)C[C@H](C)[C@@H](CN(C)Cc1ccncc1)O2,-86,.,0.17,5
COc1ccccc1NC(=O)CSc1nc(-c2ccc(C)cc2)nc2c1COC(C)(C)C2,.,-3.4,.,38
C[C@H](CO)N1C[C@H](C)[C@@H](CN(C)S(=O)(=O)c2ccccc2)Oc2c(NS(=O)(=O)c3ccccc3)cccc2C1=O,3,.,0.22,2

# Assay outcomes (PubChem)
